TRPML1 inh: blocks the human TRPML1 channel | Q9GZU1 | TRPML1-inducible cells, Ca2+ dye fluorescence, FDSS; active compounds read low; inhibition of EC80 agonist-evoked calcium signal | activity change, negative = inhibition, % (test concentration not listed) | 390,000 tested, 0.02% active | AID 624415; in the data active means activity change below about -50%; inconclusive means about -30% to -50%; inactive means above about -30%;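 note: stimulus is agonist 54-4 at its EC80 concentration; % is set by controls: 0 for no effect and ±100 for the full control effect; compound concentration not given in the record; the text of the record puts the active cut at -80%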
Target sequence (Q9GZU1 whole entry, looked up): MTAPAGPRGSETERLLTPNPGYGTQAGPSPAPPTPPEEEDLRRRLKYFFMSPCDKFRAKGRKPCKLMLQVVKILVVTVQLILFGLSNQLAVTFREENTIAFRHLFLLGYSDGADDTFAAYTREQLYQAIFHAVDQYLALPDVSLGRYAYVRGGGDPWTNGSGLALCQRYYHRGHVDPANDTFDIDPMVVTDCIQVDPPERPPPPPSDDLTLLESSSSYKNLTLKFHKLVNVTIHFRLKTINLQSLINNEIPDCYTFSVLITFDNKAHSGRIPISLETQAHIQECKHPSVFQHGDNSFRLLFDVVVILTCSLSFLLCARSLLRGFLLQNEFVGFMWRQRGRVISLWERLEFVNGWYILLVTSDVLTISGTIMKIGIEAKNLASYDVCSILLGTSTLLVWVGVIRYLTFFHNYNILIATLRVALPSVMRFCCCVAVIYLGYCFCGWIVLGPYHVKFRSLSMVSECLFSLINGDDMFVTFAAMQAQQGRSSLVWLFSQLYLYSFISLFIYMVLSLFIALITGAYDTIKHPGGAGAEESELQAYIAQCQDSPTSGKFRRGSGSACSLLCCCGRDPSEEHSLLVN
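Calcium fluorescence in TRPML1-DL cells induced overnight with Tet: a 110 s read after compound pin addition, then a 110 s antagonist read after challenge with 54-4 at 4 uM final (EC80).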
Menin-MLL FL inh: displaces fluorescein MLL peptide from human menin. AID 1766. 290,000 tested, under 10 active. Fluorescence polarization, fluorescein-MLL peptide displacement from menin. FP activity change, % at 61.4 µM; inconclusive = falling polarisation curve, or a change in total fluorescence; inactive = total fluorescence flat and polarisation flat or rising; no compound was filed as active; the % refers to the polarisation; negative = inhibition;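 note: % of control where 0% means no effect; inhibitors lower the polarisation; unlabelled MLL peptide was the positive control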
gsp ag: activates gsp, the McCune-Albright syndrome mutation | gsp mutant cells, cAMP HTRF, 30 min; control for the full effect not named in the record | 340,000 tested, 0.13% active | Potency, µM (series often up to 76.9 µM), for inactives: top-dose activation (cAMP increase), actives largely listed as activators; active = well fitted activation curve with a large enough effect; inconclusive = small, poorly fitted or top-dose-only effect, or another doubt; inactive = no such curve, though single readings can be large or run the other way; cell line not stated here;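 note: phosphodiesterase inhibitor Ro 20-1724 added with compounds to block cAMP breakdown; potency is the fitted concentration of half-maximal effect; nearly all actives have a fitted effect of over 60% in size; about a fifth of the inactives were tested at one dose only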
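Cells stably selected in G418 were plated at 2000/well, grown 16-24 hr, then given compounds in DMSO with the PDE inhibitor […] (300 uM solution added) for 30 min at 37C; cAMP was read by HTRF.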
ClpP mod: qHTS Assay for Activators of ClpP. AID 651965, 2013. ATP-dependent Clp protease proteolytic subunit (Bacillus subtilis (strain 168)), P80244. 340,000 tested, 1.9% active. purified B. subtilis ClpP, FRET peptide cleavage, 20 min. Potency, µM (series often up to 57.5 µM), without a hit: at the highest dose activity change, negative = active; active = well fitted falling curve with a large enough effect; inconclusive = small, poorly fitted or top-dose-only effect; inactive = no such curve, though single readings can be large or run the other way; note: potency is the fitted concentration of half-maximal effect; the source files actives as falling curves though it sought activators and does not explain the sign; nearly all actives have a fitted effect of over 65% in size; many hits overshoot -100%
Target sequence (P80244 whole entry, looked up): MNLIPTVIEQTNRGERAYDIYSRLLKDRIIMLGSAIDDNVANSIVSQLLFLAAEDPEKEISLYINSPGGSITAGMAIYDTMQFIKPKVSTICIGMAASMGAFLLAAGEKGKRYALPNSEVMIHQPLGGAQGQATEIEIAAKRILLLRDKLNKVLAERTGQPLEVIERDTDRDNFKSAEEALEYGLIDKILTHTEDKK
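Purified B. subtilis ClpP, 10 microg/mL final in Tris/HCl pH8 with KCl, BSA, glycerol and Tween-20, cleaved an Abz/nitrotyrosine-quenched decapeptide. Fluorescence (ex 320, em 430) was read at 0 and 20 min at room temperature. Delta was normalized to 5.8 microM ADEP and DMSO/no-enzyme controls.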
gsp antag: gsp mutant antagonism; Potency, µM (highest dose often 76.9 µM), for the others: at the top dose activity change, negative = inhibition, actives largely listed as inhibitors; 340,000 tested, 0.4% active; gsp-mutant cells, cAMP HTRF, 30 min; control for the full effect not named in the record; active = falling curve of any shape with a large fitted effect; inconclusive = falling curve, mostly with a smaller effect; inactive = flat or rising curve; cell line not stated here;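 note: intracellular cAMP measured with PDE inhibitor Ro 20-1724 present during compound exposure; potency is the fitted concentration of half-maximal effect; % is set by controls: 0 for no effect and ±100 for the full control effect; nearly all actives have a fitted effect of over 65% in size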
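G418-selected cells were plated in DMEM/10% FBS for 16-24 h at 37C, then treated with compounds plus the PDE inhibitor […] (300 uM solution added) for 30 min at 37C. Intracellular cAMP was measured by HTRF after 30 min lysis at room temperature.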
TRPML1 agonist: agonists of human TRPML1 channel | TRPML1-expressing cells, Ca2+ dye fluorescence, FDSS; host cell line not named in the record; reference of the full effect not given here | activation, % (test concentration not listed) | Q9GZU1 | 410,000 tested, 0.12% active; in the data active = activation above about 50%; inconclusive = about 30% to 50%; inactive = below about 30%; note: 0% is about no effect; the text of the record puts the active cut at 80%
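Agonist activity was taken from a 110 s kinetic Ca2+ dye read on the FDSS after pinning compounds onto TRPML1-DL cells. The cells were seeded at 1,500/well with Tet inducer, incubated about 16 h, then dye-loaded at room temperature.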
* marks the source's active call; other numbers are inactive results; ? = inconclusive; . = not tested or not shown; [ ] = dose if it differs, or a comment.

Order of results – TRPML1 inh | Menin-MLL FL inh | gsp ag | ClpP mod | gsp antag | TRPML1 agonist
Cc1nn(-c2cccc(Cl)c2)nc1C(=O)Nc1cccc(C(=O)NC2CC2)c1
    4 | . | -15% | 4.0% | ? | 1.3
COc1cccc(CNC[C@H]2O[C@@H](n3cnc(C(N)=O)n3)[C@H](O)[C@@H]2O)c1OCc1ccc(F)cc1Cl
    -13 | . | . | -1.7% | 6% | 0.0
Cc1cn(C2CC3OCC(NC(=O)C(Cc4ccccc4)NC(=O)OC(C)(C)C)C3O2)c(=O)[nH]c1=O (centres undefined)
    2 | -0.1 | . | . | . | 0.9
O=C(Nc1cccc(NC(=O)c2ccc(-c3ccc(Br)cc3)o2)c1)c1ccco1
    11 | 3.1 | 27% | ? | -21% | 0.9
Cc1ccc2cc(CN(CCCN3CCOCC3)C(=O)NC3CCCCC3)c(=O)[nH]c2c1C
    6 | -1.8 | -9% | 28µM* | 12% | -0.4
O=c1c2[nH]c3ccc(Br)cc3c2ncn1Cc1ccncc1
    0 | 4.6 | 6%[15.4 µM] | . | -2% | 0.6
COC(=O)[C@H](Cc1ccccc1)NC(=O)NC(C)CCc1ccccc1 (some centres undefined)
    . | 1.9 | -3% | 2.8% | -14% | .
Cc1cc(C)n2nc(C(=O)Nc3cccc(S(=O)(=O)N(C)c4ccccc4)c3)nc2n1
    -3 | 4.1 | -13% | -0.5% | -10% | -0.1
COC(C[C@@H](O)CC(=O)COCc1ccccc1)OC
    6 | -3.5 | . | -1.6% | 13% | -0.8
CC1(c2ccccc2Br)NC(=O)N(CC(=O)Nc2ccc(S(N)(=O)=O)cc2)C1=O (centres undefined)
    3 | 3.3 | 21% | . | 12% | -0.6
Cc1ccc(-n2c(=O)c3cccnc3n2CC(=O)Nc2ccc(C)cc2Cl)cc1
    -6 | . | . | -27% | . | -0.5
CCOc1ccc(NC(=O)CN(C)C(=O)c2cccnc2Sc2ccc(Cl)cc2)cc1OCC
    -7 | . | -4%[15.4 µM] | 0.2% | -23% | 0.5
Cc1ccc(NC(=O)CSc2n[nH]c(-c3ccco3)n2)cc1
    5 | -3.1 | 8%[15.4 µM] | -0.3% | 12% | -0.9
CCOC(=O)C1(CCOc2ccccc2)CCN(Cc2ccc(OC)cc2)CC1
    3 | . | -57%[inhibitor] | -2.7% | -7% | 2.2
CCCCc1ccc(C(=O)c2c(N)c(C(=O)Nc3cccc(OC)c3)c3ccccn23)cc1
    -12 | . | . | -0.9% | . | 0.6
Cc1ccc(-n2ncc3c(=O)n(Cc4cccnc4)cnc32)cc1
    6 | -0.1 | -59%[inhibitor] | -8.6% | -11% | 0.0
Nc1ncccc1C(=O)OCC(=O)N1CCN(S(=O)(=O)c2ccc(Cl)cc2)CC1
    -4 | . | 2% | 4.2% | -8% | -0.8
COc1ccc(C(=O)N(Cc2ccc(N(C)C)cc2)CC2CCCO2)cc1 (centres undefined)
    7 | . | . | 1.2% | . | -1.1
O=C(Cc1ncc(C(F)(F)F)cc1Cl)N1CCN(c2ccccn2)CC1
    7 | 3.3 | 11% | ? | 3% | 0.2
Cc1ccccc1N1C(=O)C2ON(c3ccccc3)C(c3ccco3)C2C1=O (centres undefined)
    -7 | 8.1 | 3% | 1.5% | 3% | 1.2

Going on with the list:
Order of results – TRPML1 inh | Menin-MLL FL inh | gsp ag | ClpP mod | gsp antag | TRPML1 agonist
Cc1nc2c(C(=O)N(C)Cc3ccccc3)c[nH]n2c(=O)c1Cc1ccc(Cl)cc1
    18 | . | . | 3.7% | . | -1.0
COC(=O)CCSCC(=O)Nc1cc(C)on1
    -4 | -1.4 | 1% | -1.1% | 1% | -0.1
Fc1ccc(COc2ccccc2CNc2nn[nH]n2)cc1
    5 | 5.5 | 14% | . | -15% | -0.7
O=C(NC1CC1)c1ccc2c(Cl)c3c(nc2c1)CCCC3
    6 | -1.0 | -5% | -0.9% | ? | 1.0
O=C(NCCCN1CCOCC1)c1cccc(NC(=O)c2ccccc2)c1
    -9 | . | -3% | 0.8% | 4% | 3.1
CC1CCN(C(=O)COC(=O)c2ccc(Br)o2)CC1
    -8 | 2.6 | ? | -0.5% | -10% | -0.6
COc1ccc(C(=O)Nc2ccc3oc(-c4cccnc4)nc3c2)cc1
    25 | . | . | 4.6% | . | -0.2
OC(c1ccccn1)C1CCN(Cc2nc(C(c3ccccc3)c3ccccc3)no2)CC1 (centres undefined)
    ? | 6.6 | -32%[inhibitor] | -3.1% | -7% | 0.0
COc1cc(/C=C/c2cc(C(=O)O)c3ccccc3n2)cc(OC)c1O
    -13 | 1.8 | ? | . | -7% | -0.5
COc1ccc(-c2cc3nc(-c4ccccc4)cc(N4CCCC(O)C4)n3n2)cc1 (centres undefined)
    7 | 11 | ? | 4.4% | 35µM* | 1.0
COc1ccc(C(C)=O)cc1COc1ccc(Cl)c(C)c1
    39 | -0.3 | 26% | . | 3% | 3.0
COc1ccc(-c2c(C)cc3oc(=O)cc(-c4ccccc4)c3c2C)cc1OC
    29 | -0.6 | . | -14% | -8% | -0.9
CCOC(=O)c1[nH]c(C)c(C(=O)OCC(=O)NC(=O)NC(C)(C)C)c1C
    -10 | 1.4 | 13% | 2.3% | 3% | 0.6
O=C1c2ccccc2C(=O)C1c1ccccc1F
    12 | 7.2 | 4%[15.4 µM] | -2.5% | 8% | -1.5
CN(C)C(=O)CSc1nc2ccc(C(=O)c3ccccc3)cc2[nH]1
    -11 | 0.0 | -19% | 0.2% | -14% | -0.1
Cn1nc(C(F)(F)F)c(C(=O)Nc2ccc(F)cc2F)c1Sc1ccc(Cl)cc1
    13 | 1.5 | -43%[inhibitor] | 1.4% | -13% | 1.7
CCCn1c2ccccc2c2cnn(CC(=O)NC3CCCCC3)c(=O)c21
    96 | . | -7% | -19% | 7% | 1.8
COc1ccc(-c2ccc(CCC(=O)O)n2C(C)C)cc1
    6 | 7.9 | -55%[inhibitor] | ? | -24% | 0.7
CC1=C(C(=O)Nc2ccccc2)C(c2ccncc2)n2nc(SCc3ccccc3F)nc2N1 (centres undefined)
    -15 | . | . | 0.4% | . | 0.1
CSc1ccccc1NC(=O)CN(C)C(C)C(=O)NCc1ccc2c(c1)OCO2 (centres undefined)
    -18 | . | 19% | -0.4% | 4% | -0.2

Next compounds follow:
Order of results – TRPML1 inh | Menin-MLL FL inh | gsp ag | ClpP mod | gsp antag | TRPML1 agonist
COc1cccc(C(=O)NNC(=O)c2ccccc2-n2cccc2)c1
    2 | -1.2 | 4%[15.4 µM] | . | . | 1.5
O=C(Nc1ccccc1N1CCOCC1)c1ccc([N+](=O)[O-])s1
    -10 | . | -5%[15.4 µM] | . | -5% | 0.7
O=C(c1ccc2c(=O)n(-c3ccccc3)c(=S)[nH]c2c1)N1CCCCC1
    22 | 3.3 | 7%[15.4 µM] | -27% | 6% | -0.4
Cc1cccn2c(=O)nc(SCC(=O)N3N=C(c4cccs4)CC3c3ccc(F)cc3)nc12 (centres undefined)
    31 | . | -1%[15.4 µM] | -18% | -7% | 0.9
C=CCn1c(=S)sc2c(=O)[nH]cnc21
    -15 | 4.8 | ? | -1.1% | -3% | 2.3
COCCN(Cc1nc(C2(c3ccc(C)cc3)CCCC2)no1)C(C)C
    21 | 4.4 | 11%[15.4 µM] | 0.1% | -32% | -0.4
O=C1CS/C(=N\N=C\c2ccccc2Cl)N1CC1CC1
    -16 | 1.8 | ? | -2.1% | 6% | 1.2
Cc1cccc(C)c1-n1c(SCC(=O)N2CC(=O)Nc3ccccc32)nc2ccccc2c1=O
    1 | -0.6 | 19% | -0.1% | -2% | 1.9
CCCCC1=CC2=CC(=O)C(C)(OC(=O)CC)C(=O)C2=CN1CCc1ccccn1 (centres undefined)
    -54* | -4.8[11.7 µM] | -1% | -18% | 5% | -0.1
CC1(C2CC2)NC(=O)N(CC(=O)N2CCN(S(=O)(=O)c3ccc(F)c(F)c3)CC2)C1=O (centres undefined)
    -7 | . | 2% | 1.3% | 4% | -0.4
CC(C)CC(=O)NC(=S)NCc1ccccc1
    8 | -1.5 | -3%[15.4 µM] | -0.5% | 11% | 0.3
COCCN(C(=O)COC(=O)/C=C/c1cccc(C(F)(F)F)c1)c1c(N)n(CC(C)C)c(=O)[nH]c1=O
    7 | . | 8%[15.4 µM] | -0.1% | 9% | -0.3
CCOc1ccccc1/C=C/c1onc(C)c1S(=O)(=O)N1CCC(C(=O)NC)CC1
    41 | 4.3 | -34%[inhibitor] | 4.6% | -4% | 0.3
CCc1nn(-c2ccccc2)c2nc(-c3ccccc3OC)c3cc(OC)c(OC)cc3c12
    5 | . | . | 4.4% | . | 1.4
CCCOc1ccc(CNC(=O)Cc2cccs2)cc1
    10 | -7.9 | -8% | -0.7% | 9% | -0.8
COc1ccc(N(CCC(=O)NCCc2ccccc2)S(=O)(=O)c2ccc(C)cc2C)cc1
    17 | . | 30% | -0.9% | -15% | 2.0
Cn1c(CCNC(=O)C2CCCCC2)nc2cc(NC(=O)c3cccs3)ccc21
    -16 | -3.9 | 3%[15.4 µM] | . | 5% | 0.7
COCCNC(=O)CSc1ncnc2sccc12
    -17 | 3.0 | ? | 1.0% | 6% | -0.2
Cc1nc(C)c(C(=O)C2=C(O)C(=O)N(CCN3CCOCC3)C2c2ccco2)s1 (centres undefined)
    7 | 1.9 | -13% | -1.7% | 6% | -0.2
CCCCn1c(SCC(=O)N2CC(C)CC(C)C2)nc2cc(S(N)(=O)=O)ccc21 (centres undefined)
    -3 | 0.0 | 4% | -1.8% | 3% | 1.1

(further entries)
Order of results – TRPML1 inh | Menin-MLL FL inh | gsp ag | ClpP mod | gsp antag | TRPML1 agonist
CC(C)c1ccc(OCc2cc(=O)n3c4c(sc3n2)CCCC4)cc1
    15 | . | . | -19% | . | -0.2
COc1ccc(-c2cc3cc4c(cc3cn2)OCO4)cc1
    5 | . | . | 14µM* | -8% | -0.1
CSc1nc(N(C)NC(=O)c2ccc(F)cc2)c2ccccc2n1
    -8 | -0.4 | ? | -1.1% | 10% | 1.6
CCOC(=O)c1c(C)[nH]c(C(=O)OCC(=O)N2CCc3ccccc32)c1C
    -1 | -1.2 | -21% | 0.9% | -9% | 1.1
Cc1ccccc1N(C(=O)CNC(=O)c1ccco1)C(C(=O)NC1CCCC1)c1ccncc1 (centres undefined)
    -7 | -10 | 3% | . | 0% | 0.5
COc1ccc(-c2nc3ccccc3s2)cc1NC(=O)c1ccccc1F
    -14 | . | . | -9.0% | . | 0.5
O=C1c2ccccc2S(=O)(=O)N1CCOc1ccc(F)cc1
    8 | 3.4 | -26% | -0.3% | -15% | -0.1

Screens (PubChem)
